# gsp agonist: gsp mutant agonism; 340,000 compounds, 0.13% hits; gsp mutant cells, cAMP HTRF, 30 min; control for the full effect not named in the record; AID 624287; Potency, µM (doses to about 76.9 µM), without a hit: at the highest dose activation (cAMP increase), actives largely listed as activators; active = well fitted activation curve with a large enough effect; inconclusive = small, poorly fitted or top-dose-only effect, or another doubt; inactive = no such curve, though single readings can be large or run the other way; cell line not stated here;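 further: phosphodiesterase inhibitor Ro 20-1724 added with compounds to block cAMP breakdown; potency means the concentration at half of the fitted maximal effect; nearly all actives have a fitted effect of over 60% in size; about a fifth of the inactives were tested at one dose only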
#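 Cells stably selected in G418 were plated at 2000/well, grown 16-24 hr, then given compounds in DMSO with the PDE inhibitor […] (300 uM solution added) for 30 min at 37C; cAMP was read by HTRF.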
# Menin MLL FP FL: inhibitors of human menin-MLL interaction, wild-type MLL peptide; Fluorescence polarization, fluorescein-MLL peptide displacement from menin; FP activity change, % at 61.4 µM; 290,000 tested, under 10 active; AID 1766; inconclusive = falling polarisation curve, or a change in total fluorescence; inactive = total fluorescence flat and polarisation flat or rising; no compound was filed as active; the % refers to the polarisation; negative = inhibition;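 further: % of control where 0% means no effect; inhibitors lower the polarisation; unlabelled MLL peptide was the positive control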
# TRPML1 inh: blocks the human TRPML1 channel; 390,000 compounds, 0.02% hits; activity change, negative = inhibition, % (no concentration beside the values); TRPML1-inducible cells, Ca2+ dye fluorescence, FDSS; active compounds read low; inhibition of EC80 agonist-evoked calcium signal; Q9GZU1; in the data active means activity change below about -50%; inconclusive means about -30% to -50%; inactive means above about -30%;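 further: stimulus is agonist 54-4 at its EC80 concentration; on the % scale 0 is the no-effect control and ±100 the full control effect; compound concentration not given in the record; the text of the record puts the active cut at -80%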
#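 Calcium fluorescence in TRPML1-DL cells induced overnight with Tet: a 110 s read after compound pin addition, then a 110 s antagonist read after challenge with 54-4 at 4 uM final (EC80).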
# ClpP mod: qHTS Assay for Activators of ClpP; 340,000 compounds, 1.9% hits; purified B. subtilis ClpP, FRET peptide cleavage, 20 min; Potency, µM (top dose mostly 57.5 µM), for inactives: top-dose activity change, negative = active; ATP-dependent Clp protease proteolytic subunit (Bacillus subtilis (strain 168)), P80244; active = well fitted falling curve with a large enough effect; inconclusive = small, poorly fitted or top-dose-only effect; inactive = no such curve, though single readings can be large or run the other way; further: potency means the concentration at half of the fitted maximal effect; the source files actives as falling curves though it sought activators and does not explain the sign; nearly all actives have a fitted effect of over 65% in size; many hits overshoot -100%
# Target sequence (P80244 whole entry, looked up): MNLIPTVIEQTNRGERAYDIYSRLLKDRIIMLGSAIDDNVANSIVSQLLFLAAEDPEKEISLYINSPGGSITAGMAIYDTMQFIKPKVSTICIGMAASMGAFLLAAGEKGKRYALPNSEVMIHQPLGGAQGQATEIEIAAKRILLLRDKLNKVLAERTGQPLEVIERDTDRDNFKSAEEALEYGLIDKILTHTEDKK
#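 Purified B. subtilis ClpP, 10 microg/mL final in Tris/HCl pH8 with KCl, BSA, glycerol and Tween-20, cleaved an Abz/nitrotyrosine-quenched decapeptide. Fluorescence (ex 320, em 430) was read at 0 and 20 min at room temperature. Delta was normalized to 5.8 microM ADEP and DMSO/no-enzyme controls.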
# Sfp PPTase inh: blocks B. subtilis Sfp PPTase activity. Q9F4F7. Biochemical Sfp PPTase activity, qHTS. Potency, µM, for the others: max response, negative = inhibition, actives largely listed as inhibitors. 310,000 compounds, 3.5% hits. AID 1490; active means well fitted inhibition curve with a large enough effect; inconclusive means small, poorly fitted or top-dose-only effect, or another doubt; inactive means no such curve, though single readings can be large or run the other way;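 further: the enzyme is Sfp with the accession as filed and its product quenches rhodamine fluorescence; potency means the concentration at half of the fitted maximal effect; 0% = enzyme reaction without inhibitor and -100% = no enzyme wells; top concentration of the series not given in the record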
#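 Buffer: 50 mM Hepes-Na pH 7.6, 10 mM MgCl2, 0.01% Nonidet P-40, 0.01% BSA. Enzyme 15 nM, pre-exposed to compound 15 min; substrates then added and fluorescence change tracked over 30 min.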
# TRPV1 PAM: potentiators of human vanilloid receptor 1 (TRPV1); potentiation, % at 8.33 µM; 320,000 compounds, 0.02% hits; Q8NER1; TRPV1-expressing cells, Fluo-8 calcium influx, capsaicin EC20 potentiation; host cell line not named in the record; control for the full effect not named in the record; active means potentiation above 80%; inconclusive means 30% to 80%; inactive means below 30%; further: 0% is about no effect
# Target sequence (Q8NER1 whole entry, looked up): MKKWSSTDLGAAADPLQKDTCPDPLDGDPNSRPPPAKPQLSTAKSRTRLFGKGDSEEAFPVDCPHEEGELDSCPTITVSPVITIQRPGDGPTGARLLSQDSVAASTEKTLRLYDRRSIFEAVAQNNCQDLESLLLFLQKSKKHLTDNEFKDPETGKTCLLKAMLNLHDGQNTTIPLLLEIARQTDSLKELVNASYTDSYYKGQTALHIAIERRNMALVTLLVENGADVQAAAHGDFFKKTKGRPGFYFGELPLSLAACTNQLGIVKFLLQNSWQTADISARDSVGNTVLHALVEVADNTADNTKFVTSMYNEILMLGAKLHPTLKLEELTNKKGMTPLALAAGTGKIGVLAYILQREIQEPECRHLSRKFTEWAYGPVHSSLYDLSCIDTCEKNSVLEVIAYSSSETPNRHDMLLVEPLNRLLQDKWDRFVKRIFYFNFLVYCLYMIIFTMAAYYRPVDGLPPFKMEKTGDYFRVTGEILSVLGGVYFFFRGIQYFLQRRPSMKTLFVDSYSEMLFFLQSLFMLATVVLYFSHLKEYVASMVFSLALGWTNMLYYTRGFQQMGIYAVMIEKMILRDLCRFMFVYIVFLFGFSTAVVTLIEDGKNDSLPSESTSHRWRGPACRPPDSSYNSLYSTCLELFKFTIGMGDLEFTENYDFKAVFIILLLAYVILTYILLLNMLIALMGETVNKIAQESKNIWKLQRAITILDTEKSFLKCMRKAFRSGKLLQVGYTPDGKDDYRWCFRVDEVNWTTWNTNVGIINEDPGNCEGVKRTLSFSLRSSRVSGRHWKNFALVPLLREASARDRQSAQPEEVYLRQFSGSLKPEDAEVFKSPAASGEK
#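 TRPV1-expressing cells were cultured overnight at 35.5C and loaded with Fluo-8 calcium dye for 40 to 90 min at room temperature. After a 10 s baseline, compound was added and calcium influx was read kinetically for 3 min (ex 480/em 520 nm).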
# gsp antag: antagonists of gsp mutant (McCune-Albright syndrome); gsp-mutant cells, cAMP HTRF, 30 min; control for the full effect not named in the record; Potency, µM (highest dose often 76.9 µM), inactives show at the top dose activity change, negative = inhibition, most hits filed as inhibitors; 340,000 compounds, 0.4% hits; active = falling curve of any shape with a large fitted effect; inconclusive = falling curve, mostly with a smaller effect; inactive = flat or rising curve; cell line not stated here;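 further: intracellular cAMP measured with PDE inhibitor Ro 20-1724 present during compound exposure; potency means the concentration at half of the fitted maximal effect; on the % scale 0 is the no-effect control and ±100 the full control effect; nearly all actives have a fitted effect of over 65% in size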
#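 G418-selected cells were plated in DMEM/10% FBS for 16-24 h at 37C, then treated with compounds plus the PDE inhibitor […] (300 uM solution added) for 30 min at 37C. Intracellular cAMP was measured by HTRF after 30 min lysis at room temperature.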
# Numbers without * were called inactive; ? = inconclusive; nt = not tested or not shown; & = joins results of further samples; [ ] = another dose, or the depositor's remark. Hits appear at their usual frequency; any-hit rate near 4.9%.
smiles,gsp agonist,gsp antag,ClpP mod,Menin MLL FP FL,TRPML1 inh,TRPV1 PAM,Sfp PPTase inh
O=C(CCNC(=O)c1ccc([N+](=O)[O-])cc1)NC1CCCc2ccccc21 (stereo not given),?,3%,-2.7%,nt,5,-8,nt
CCCNC(=O)c1onc(CSc2nc3ccccc3[nH]2)c1C(=O)NCCC,?,-10%,-4.2%,-1.0,7,?,13%
CC1CCN(CCCNC(=O)c2ccc(N3CCCC3=O)cc2)CC1,5%,21%,-2.2%,nt,-11,-1,13%
COc1cc(C(=O)NCC(c2cccs2)N2CCOCC2)ccc1OCc1ccccc1 (stereo not given),6%,nt,-5.4%,nt,7,nt,nt
O=C(O)C1C2C=CC(O2)C1C(=O)NCc1ccccc1Br (stereo not given),5%,10%,-2.1%,1.2,6,-4,-14%
COc1ccc2[nH]c(C(=O)NCCN3CCCCC3)cc2c1,6%[15.4 µM],3%,nt,4.5,-4,13,-2%
CC(=O)c1cccc(NC(=O)COC(=O)c2ccc3c(c2)OCO3)c1,4%,2%,-21%,nt,-16,9,nt
CC(C)CC1(C)NC(=O)N(CC(=O)NC(=O)Nc2ccc3c(c2)OCCO3)C1=O (stereo not given),-27%,4%,1.3%,4.5,-12,?,-1%
COCCNc1oc(/C=C/c2cccs2)nc1S(=O)(=O)c1ccccc1,-4%,nt,3.7%,nt,-6,nt,nt
O=C(C1CCCCC1)N1C[C@H](n2cc(-c3ccc(F)cc3)nn2)[C@@H](O)C[C@@H]1c1ccc(Cl)cc1,-25%,nt,0.6%,nt,25,nt,nt
CC(C)C1CC(CCN)(c2ccccc2)CCO1 (stereo not given),29%,-17%,-2.8%,2.6,nt,-5,-9%
CCC(C)n1c(=O)c2sccc2n2c(CCCC(=O)N3CCC(C(N)=O)CC3)nnc12 (stereo not given),?,4%,-6.2%,nt,?,-12,9%
COc1ccc(O)c(/C=N/NC(=O)CCC(=O)Nc2ccc(F)cc2)c1,-9%[15.4 µM],13%,1.2%,-2.2,20,-10,8%
CC(CCc1ccccc1)NC(=O)c1ccc(Br)cc1 (stereo not given),-5%[15.4 µM],2%,-7.2%,-3.3,-5,-13,12%
CCN(CC)CCCN=C1N[C@@H](c2cccc(F)c2)C(C(=O)OC)=C(C)N1Cc1ccccc1,nt,6%,-3.7%,nt,-7,nt,nt
CCC(=O)Nc1c(C(=O)N2CCN(c3ccccn3)CC2)cnn1-c1ccc(Cl)cc1,3%,-4%,-26%,nt,-4,-4,24%
CCCCCCCSc1nsc(N)n1,-7%,2%,1.5%,0.8,8,4,14%
COc1cccc(N2CC(C(=O)NC3CCCCC3)CC2=O)c1 (stereo not given),0%,3%,0.7%,-0.3,-6,-2,3%
COC(=O)c1ccccc1OS(=O)(=O)N(C)C,22%,2%,nt,4.4,7,7,-5%
CC(OC(=O)[C@@H]1CCCN1C(=O)c1cccs1)C(=O)Nc1cccc([N+](=O)[O-])c1 (stereo not given in full),0%,?,0.5%,nt,10,nt,nt
COC1=CC(=O)OC(c2ccco2)C1 (stereo not given),6%,7%,nt,nt,10,nt,nt
Cc1ccc2c(c1)/C(=C/c1ccco1)C(=O)N2,7%,-4%,nt,3.9,21,22,?
O=C(CSCc1ccc(F)cc1)N1CCN(c2ccccc2)CC1,-27%,-2%,-0.1%&0.5%,0.4,0&21,5,11%
Cc1ccc(SC(C)C(=O)Nc2ccccc2-c2ccccc2)cc1 (stereo not given),-1%,-3%,-5.7%,4.9,13,-11,10%
COc1cc(NC(=O)COc2ccc(Br)cc2)ccc1NC(=O)C(C)C,4%,9%,nt,0.3,21,8,18%
COc1ccc(CC(=O)Nc2ccc(N3CCCCC3)cc2)cc1,-37%[15.4 µM],3%,nt,2.0,-15,-20,-1%
CC(=O)N1CCN(C(=O)c2ccc(S(=O)(=O)Nc3ccccc3F)cc2)CC1,?,-1%,-0.7%,nt,-8,-7,nt
CC(C)c1cccc(C(C)C)c1OC(=O)NC(=O)c1c(F)cccc1F,1%,-16%,1.9%,nt,-20,-24,3%
Cc1cc(C)nc(SC2CC(=O)N(c3ccc(Cl)cc3)C2=O)n1 (stereo not given),10%,1%,nt,-1.5,4,-10,15%
CCCCn1c(=O)[nH]c(=O)c2c1nc(-c1ccccc1F)n2Cc1ccccc1OC,-7%[15.4 µM],-28%,1.0%,-2.6,-13,5,-7%

smiles,gsp agonist,gsp antag,ClpP mod,Menin MLL FP FL,TRPML1 inh,TRPV1 PAM,Sfp PPTase inh
Cc1cccc(OCC(=O)Nc2ccc3c(c2)nc(CCN2CCN(c4ccccn4)CC2)n3C)c1,-10%,?,-5.9%,6.5,-3,7,9%
O=C(c1ccco1)N1CCN(c2ncnc3scc(-c4ccc(Cl)cc4)c23)CC1,?,nt,0.5%,nt,-9,nt,nt
COC(=O)C1=C(C(=O)OC)[C@@H]2N(C)c3ccc(OC)cc3[C@@]23C[C@@H](C(=O)OC)N(C(=O)CC(C)C)C3=N1,-25%,-8%,0.3%,-1.2[11.7 µM],13,nt,-14%
Cc1cc(C)cc(-n2nnc(C(=O)NCc3ccc(Cl)cc3)c2N)c1,-13%,14%,1.1%,3.2,8,2,9%
NC(=O)c1ccc(C2SCC(=O)N2CCc2ccccc2)cc1 (stereo not given),-1%,4%,?,nt,-7,-31,nt
C[C@@H]1CN([C@@H](C)CO)C(=O)c2ccccc2-c2ccccc2CO[C@@H]1CN(C)S(=O)(=O)c1ccc(C(F)(F)F)cc1,?,nt,0.6%,nt,1,nt,nt
O=C(COC(=O)Cc1ccc(Cl)c(Cl)c1)Nc1ccc2[nH]c(=O)[nH]c2c1,0%,8%,1.4%,nt,13,-4,nt
CCOC(=O)COc1ccc(N)cc1CC(NC(C)=O)(C(=O)OCC)C(=O)OCC,-1%,-6%,-1.6%,5.7,13,-2,5%
O=S(=O)(c1ccc(F)cc1)N1CCN(C(=S)NCCc2ccccc2)CC1,-53%[inhibitor],1%,-2.6%,nt,-6,0,9%
Cc1cccc(Nc2nc(NCCCN3CCOCC3)nc(N)c2[N+](=O)[O-])c1,-2%[15.4 µM],18%,20µM*,6.9,18,1,3%
CCOc1c(S(=O)(=O)NC2CC(C)(C)NC(C)(C)C2)ccc(Cl)c1Cl,-2%,10%,nt,0.5,-18,-2,20%
COc1ccc(-n2c(=S)[nH]c3cc(C(=O)N4CCN(c5ccccc5)CC4)ccc3c2=O)c(OC)c1,-9%,-1%,nt,-0.5,14,7,2%
COc1cc(OC)cc(C(=O)N[C@H](C(=O)Nc2nnc(C3CC3)s2)C(C)C)c1,-18%,-12%,-1.7%,0.7,6,16,13%
COc1ccc(C(=O)Nc2c3c(nn2-c2ccc(Cl)cc2)CS(=O)(=O)C3)cc1,27%,-7%,-1.3%,-1.6,13,26,8%
CC(C)c1ccc(OC(=O)c2cccc(S(=O)(=O)N3CCN(C)CC3)c2)cc1,-7%[15.4 µM],-9%,-0.6%,3.3,-4,-2,-9%
Cc1ccc(OC(=O)c2cc3ccccc3o2)cc1,-21%,3%,-2.8%,-3.4,53,8,-7%
COc1cc(-n2c(=O)c3ccccc3n(CC(=O)c3ccccc3)c2=O)cc(OC)c1OC,1%,6%,0.8%,1.2,nt,-3,6%
O=C(c1cc2ccccc2o1)N(C1CC1)C1(C(=O)Nc2ccccc2)CCCC1,17%[15.4 µM],-79%,nt,1.7,31,-12,6%
O=C(CSc1nc2cc(Cl)c(Cl)cc2[nH]1)c1ccc2c(c1)OCO2,13%[15.4 µM],-34%,-18%,6.4,15,22,?
COC(=O)Cc1c(C)nc(SCc2ccccc2)[nH]c1=O,0%,-9%,1.9%,0.7,-1,5,7%
CC(C)Sc1nc2c(cnn2-c2ccc(F)cc2)c(=O)[nH]1,-7%,6%,-2.6%,0.0,10,18,-4%
Cc1nc(CCNC(=O)CC2C(=O)NCCN2Cc2ccc(F)cc2)sc1C (stereo not given),?,8%,nt,-8.9,-14,-3,32µM*
CC1(C)Cc2ccccc2C(/C(=N/O)C(N)=O)=N1,18%,6%,1.6%,3.7,83,-6,10%
Cc1ccc(S(=O)(=O)NNC(=O)Nc2cccc(C)c2C)c(C)c1,0%,3%,1.4%,nt,-3,3,14%
Cc1ccccc1C(=O)OCc1nnc(-c2ccc(Cl)cc2)o1,-20%,-8%,-0.2%,-5.7,-11,8,-12%
O=C(NC1=NCCS1)c1cc(Cl)ccc1Cl,-13%,7%,-2.1%,?,3,10,18%
Cc1ccc(S(=O)(=O)NC(=O)Nc2nnc(C3CC3)s2)cc1,-4%,7%,3.6%,4.8,-22,3,19%
COC(=O)c1nn(-c2nc(-c3cccc(OC)c3)cc(C(F)(F)F)n2)cc1[N+](=O)[O-],5%[15.4 µM],13%,nt,-0.3,11,-3,-16%
Cc1ccccc1C(=O)Nc1cccc(NC(=O)c2cccnc2)c1,7%[15.4 µM],-27%,nt,1.1,-3,-2,24%
O=C1C(SC(F)(F)C(F)F)=C(C(F)(F)F)OC2C3C=CC(C3)C12 (stereo not given),-17%,3%,16µM*,0.9,-10,nt,9%

smiles,gsp agonist,gsp antag,ClpP mod,Menin MLL FP FL,TRPML1 inh,TRPV1 PAM,Sfp PPTase inh
Cn1cccc1C(=O)NC(=O)COC(=O)c1ccccc1Sc1ccccc1C#N,-11%,1%,-7.6%,-1.5,5,22,8%
Cc1ccc(NC(=O)c2ccccc2NS(=O)(=O)c2ccc(F)cc2)cc1S(=O)(=O)N1CCCCC1,-4%,?,32µM*,9.3,0,7,18%
CCCn1nc2cc(C(=O)NCc3ccc4c(c3)OCO4)ccc2c1OCC,-34%[inhibitor],-1%,3.8%,-1.4,-10,12,13%
O=C(O)CSC1CC(=O)N(c2ccc(Br)cc2)C1=O (stereo not given),18%,12%,-2.0%,-6.7,-28,0,4%
Cc1ccccc1-n1nnnc1SCC(=O)Nc1ccc(S(=O)(=O)N2CCCC2)cc1,-15%,-24%,-0.3%,-1.0,2,-11,11%

# Screening data from PubChem.
